eIF4H FP inh: inhibitors of RNA binding by human eIF4H; Q15056; eIF4H fluorescence polarization binding assay; inhibition, % at 35 µM; hit rate 0.94% among 290,000; AID 2012;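 active means 50% or more with normal probe brightness, or confirmed in later tests; inconclusive means above 50% with abnormal brightness, or retests that disagree; inactive means below 50% or failed in later tests; about a fifth of its hits are not listed in these tables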;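 further: calls also rest on retests at 20 µM and on dose response follow-up; 0% = protein and probe with vehicle and 100% = probe without protein; strong numbers were not always called active; many hits fall short of the cut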
Rce1 inhib: yeast Ras-converting enzyme inhibition; Q03530; yeast membranes, quenched prenylated peptide cleavage fluorescence; calls only; hit rate 0.27% among 290,000; AID 2563;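 active means fall in fluorescence gain of 50% or more versus controls, with final raw signal at or below 3038400; inconclusive means same 50% fall but final raw signal above 3038400; inactive means fall in fluorescence gain under 50%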;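 further: plate controls were neutral control wells for no effect and wells lacking membranes for full effect; tested at 10 µM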
Target sequence (Q03530 whole entry, looked up): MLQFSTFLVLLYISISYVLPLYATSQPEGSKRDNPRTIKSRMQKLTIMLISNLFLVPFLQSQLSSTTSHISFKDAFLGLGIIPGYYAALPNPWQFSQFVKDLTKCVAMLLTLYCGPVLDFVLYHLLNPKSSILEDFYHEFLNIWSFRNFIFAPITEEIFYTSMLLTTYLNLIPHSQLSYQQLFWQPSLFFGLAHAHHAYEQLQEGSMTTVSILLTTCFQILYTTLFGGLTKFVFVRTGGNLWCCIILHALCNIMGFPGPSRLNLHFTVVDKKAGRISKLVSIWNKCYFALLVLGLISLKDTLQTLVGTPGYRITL
PABP FP inh: blocks human PABP binding to poly(A) RNA; P11940; fluorescence polarization; inhibition, % at 35 µM; hit rate 1% among 290,000;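 active means 50% or more with normal probe brightness, or confirmed in later tests; inconclusive means above 50% with abnormal brightness, or retests that disagree; inactive means below 50% or failed in later tests; about a fifth of its hits are not listed in these tables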;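 further: calls also rest on retests at 20 µM and on dose response follow-up; controls were probe without protein and protein plus probe with vehicle; some compounds called inactive have numbers as strong as hits; many hits fall short of the cut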
Target sequence (P11940 whole entry, looked up): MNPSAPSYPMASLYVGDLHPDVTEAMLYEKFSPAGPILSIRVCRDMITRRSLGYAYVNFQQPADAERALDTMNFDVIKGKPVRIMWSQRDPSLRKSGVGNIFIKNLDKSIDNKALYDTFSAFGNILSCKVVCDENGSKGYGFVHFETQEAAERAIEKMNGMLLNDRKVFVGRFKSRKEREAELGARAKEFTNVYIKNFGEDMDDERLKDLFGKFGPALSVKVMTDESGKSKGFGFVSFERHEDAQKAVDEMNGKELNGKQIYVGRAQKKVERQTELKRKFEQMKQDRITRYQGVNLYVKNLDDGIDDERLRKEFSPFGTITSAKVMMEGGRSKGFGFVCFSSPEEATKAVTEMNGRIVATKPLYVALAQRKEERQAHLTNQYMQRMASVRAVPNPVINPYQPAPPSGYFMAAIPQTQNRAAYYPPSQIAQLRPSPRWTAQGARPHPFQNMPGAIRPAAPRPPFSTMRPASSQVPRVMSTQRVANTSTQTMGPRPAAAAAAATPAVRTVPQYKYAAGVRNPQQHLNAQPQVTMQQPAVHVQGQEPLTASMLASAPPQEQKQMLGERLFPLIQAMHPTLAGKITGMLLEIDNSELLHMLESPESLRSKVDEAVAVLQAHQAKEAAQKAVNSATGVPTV
UUG fidelity: modulators of start codon recognition fidelity in yeast; S. cerevisiae UUG-firefly luciferase reporter, luminescence/redox ratio; activity score, % at 18.7 µM; hit rate 0.13% among 350,000; AID 602363;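 active means replicate mean at a twofold rise or more, about +100% in these data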;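 further: firefly luciferase made from a UUG start codon reports start codon fidelity; reporter light over untreated wells divided by growth signal over untreated wells; some hits fall short of that in this replicate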
MT1-MMP act inh: blocks activation of human MT1-MMP. HT1080 RFP-PRO-GFP cells, GFP/RFP ratio fluorescence, overnight; percent of plate control window, DMSO zero. GFP/RFP ratio change, % at 20 µM. AID 651647. hit rate 0.061% among 360,000;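 active means GFP/RFP ratio change of at least 30% with cell ATP level not reduced by more than half and red fluorescence within 50% of control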; further: strong numbers were not always called active
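system = RFP-PRO-GFP reporter HT1080 cells | dosing = 20 µM single dose, 1% DMSO | timing = overnight cell settling, then overnight compound exposure, 37 °C, 5% CO2 | read-out basis = GFP/RFP fluorescence ratio | controls = DMSO and RFP-L50D-GFP cell wells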
CSC inhib: blocks cancer stem cells; cancer stem cell-like cells viability, luminescence; inhibition, % at 7.5 µM; hit rate 1.1% among 300,000; AID 2717;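 active means mean at 75% or more and at least half the replicates too; inconclusive means mean and replicates disagree; tested in HMLE shEcad cells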;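 further: 0% = median of negative and 100% = median of positive control wells; the first replicate is given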
Env fusion inh: HIV envelope-mediated fusion inhibition; HeLa-JRFL Env/CEM21 cell fusion, luciferase; inhibition, % at 12.3 µM; hit rate 1.1% among 360,000;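 active means mean replicate inhibition score of at least 50 and every replicate individually at or above 50; inconclusive means only one of the two criteria met; inactive means mean below 50 and not all replicates reaching 50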;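 further: 0% = plate neutral controls and 100% = maraviroc near 300 nM; one replicate is shown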
MT1-MMP act inh RFP: second read-out of MT1-MMP act inh, no call of its own (marks repeat the call); RFP signal change, %; measured here: RFP expression control read;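 0 = vehicle wells; hits needed this value within 50% of zero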
* = called active by the depositor; i = inactive; u = inconclusive; x = not tested or not shown; + = active, no number. Rows were taken by chance. About 3% of those tested had a hit in this group.

Start of the listing, in advance (two entries):
Molecule | eIF4H FP inh | Rce1 inhib | PABP FP inh | UUG fidelity | MT1-MMP act inh | MT1-MMP act inh RFP | CSC inhib | Env fusion inh
Cc1nn(Cc2ccc(F)cc2)c(C)c1NC(=O)c1nn(C)cc1Cl | -7 | i | -7 | 4 | 0 | -1 | 1 | -89
CCCCCCSc1ccc([C@H]2N[C@@](CC(C)C)(C(=O)OC)[C@H]3C(=O)N(CC)C(=O)[C@@H]23)cc1 | x | i | x | -21 | -3 | -7 | 44 | -5

Results (from the top)
Molecule | eIF4H FP inh | Rce1 inhib | PABP FP inh | UUG fidelity | MT1-MMP act inh | MT1-MMP act inh RFP | CSC inhib | Env fusion inh
Cc1nn(Cc2ccc(F)cc2)c(C)c1NC(=O)c1nn(C)cc1Cl | -7 | i | -7 | 4 | 0 | -1 | 1 | -89
CCCCCCSc1ccc([C@H]2N[C@@](CC(C)C)(C(=O)OC)[C@H]3C(=O)N(CC)C(=O)[C@@H]23)cc1 | x | i | x | -21 | -3 | -7 | 44 | -5
CCOC(=O)Cc1csc(NC(=O)CSc2ncnc3c2cnn3-c2ccccc2Cl)n1 | 4 | i | -4 | -15 | 1 | 3 | x | x
COC(=O)CN1C(=O)C(O)(CC(=O)c2ccccc2)c2ccccc21 (stereo unspecified) | 0 | i | 8 | -4 | 1 | -1 | x | x
Nc1ccc(OCc2ccccc2)cc1 | 0 | i | -4 | -26 | 0 | 0 | -6 | -7
O=C(c1cc(-c2ccc(Cl)c(Cl)c2)on1)N1CCCCCC1 | 9 | i | -4 | -12 | 3 | -1 | -22 | -80
CC(C)CN(C(=O)COC(=O)CCCc1c[nH]c2ccccc12)c1c(N)n(Cc2ccccc2)c(=O)[nH]c1=O | 2 | i | 9 | -2 | -4 | -4 | -6 | 18
NC1=NC(=O)C(CC(=O)c2ccc(Cl)cc2)S1 (stereo unspecified) | -4 | i | -15 | -15 | 0 | 4 | 11 | -4
Cc1ccc(C)c(OC(=O)c2cccnc2)c1 | -4 | i | 1 | -19 | -3 | 0 | -9 | x
C/C(N)=C(/C#N)C(=O)COC(=O)CCC1CCCC1 | 8 | i | -1 | 0 | 2 | 2 | x | 3
CCCCn1c(-c2ccccc2)nnc1-c1ccccc1 | -4 | i | 9 | -9 | -2 | -1 | 51 | 10
CC(=O)OC1c2ccccc2C(=O)N1c1ccccc1C (stereo unspecified) | -10 | i | -15 | -18 | 2 | 0 | -9 | 77*
Cc1nc2ccc(S(=O)(=O)N(C)CC(=O)NCc3ccc4c(c3)OCO4)cc2s1 | -5 | i | -8 | -4 | 4 | 2 | -14 | x
COCCNC(=O)CCc1nnc(Cc2ccc(-c3ccccc3)cc2)o1 | -5 | i | -6 | x | 5 | 2 | -10 | -7
O=C(Nc1nc2ccc(Br)cc2s1)c1ccco1 | -10 | i | -4 | -25 | 3 | 0 | 0 | -106
O=S(=O)(c1ccc(-c2cc(C(F)(F)F)on2)s1)N1CCCC1 | 4 | i | -1 | x | 2 | -4 | 1 | 7
CC(=O)Nc1ccc(NC(=O)CN(c2ccccc2Cl)S(C)(=O)=O)cc1 | 3 | i | 4 | -15 | -3 | 1 | 10 | -21
COc1ccc2nc(NC(=S)N(C)C)sc2c1 | 12 | i | -1 | -56 | 14 | -12 | -5 | -98
CC(C)c1ccc(NC(=O)CN(C)C2=NS(=O)(=O)c3ccccc32)cc1 | x | x | x | -14 | 2 | -2 | x | -15
COc1ccc(C2=NS(=O)(=O)N(C)C(C(=O)NCc3ccccn3)=C2)cc1 | 0 | i | -6 | -13 | 1 | 3 | 2 | 2
Cc1cc(S(=O)(=O)N2CCC(NC(=O)C34CC5CC(CC(C5)C3)C4)CC2)ccc1-n1cnnn1 | 12 | x | 0 | 2 | 0 | 3 | x | -37
CC(C)c1cccc(C2=CC(=O)C[C@H](c3ccc(F)cc3)C2)c1 | x | x | x | -2 | 2 | -4 | 32 | 25
O=C1CN(Cc2ccccc2)CC(=O)N1 | x | x | x | -9 | -1 | 2 | x | 1
COc1ccc2c(c1)c(=O)oc1c(C)c(OC(C)C(=O)NCC3CCC(C(=O)O)CC3)ccc12 (stereo unspecified) | -14 | i | 10 | -17 | -2 | 3 | -3 | x
O=C(NC1CC1)C1=C[C@@H](c2csc3ccccc23)C[C@@H](OCCCCO)O1 | 4 | i | -7 | -19 | 1 | 0 | -11 | -4
CC(=O)Nc1oc(-c2cccc3ccccc23)nc1C#N | x | x | x | -7 | 4 | 5 | -2 | -55
CCCCC(=O)Nc1ccc(C(=O)NCC(=O)OC)cc1 | -5 | i | 2 | x | 2 | -1 | -1 | x
Cc1cccc(CS(=O)(=O)Cc2ccc(C(=O)NCc3ccccc3)o2)c1 | -14 | i | 14 | -8 | 3 | -2 | -1 | -3
O=C(O)CCC(=O)NN1C(=O)c2ccccc2NC1c1ccco1 (stereo unspecified) | -3 | i | -17 | x | 1 | 4 | -1 | -10
C=CCOC(=O)C1=C(C)Nc2ncnn2C1c1cc(Br)ccc1F (stereo unspecified) | -9 | i | 16 | -15 | 2 | -7 | 13 | -47
Cc1nc(N2CCN(c3ccccc3)CC2)nc2c1C(=O)CC(C)C2 (stereo unspecified) | 2 | i | -4 | -5 | -1 | -1 | 2 | -5
O=C(CSc1ccc2nnc(-c3ccccn3)n2n1)Nc1ccccc1C(F)(F)F | -11 | i | 9 | -17 | -1 | -3 | -2 | x
CCN(C(=O)CSc1nc2ccc(C)cc2[nH]1)C1CCS(=O)(=O)C1 (stereo unspecified) | x | x | x | -16 | 2 | 2 | 3 | -5
CC1=C(C(=O)OCC2CCCO2)C(c2ccc(O)cc2)NC(=O)N1 (stereo unspecified) | -1 | i | 2 | 4 | 2 | 0 | 2 | -26
N#CC1=C(N)C(C#N)(C#N)[C@H](c2c(F)cccc2F)[C@H]2CC3(CC=C12)OCCO3 | u | i | u | -18 | -135 | 0 | 48 | x
CC1=C(C(=O)Nc2cccnc2)C(c2ccc(C(C)C)cc2)n2ncnc2N1 (stereo unspecified) | -5 | i | -4 | -8 | 0 | 2 | x | -18

As entered above.
MT1-MMP act inh, O=C(CSc1ccc2nnc(-c3ccccn3)n2n1)Nc1ccccc1C(F)(F)F = -1
MT1-MMP act inh, O=C(O)CCC(=O)NN1C(=O)c2ccccc2NC1c1ccco1 (stereo unspecified) = 1
MT1-MMP act inh, CC(=O)Nc1oc(-c2cccc3ccccc23)nc1C#N = 4
MT1-MMP act inh, CCN(C(=O)CSc1nc2ccc(C)cc2[nH]1)C1CCS(=O)(=O)C1 (stereo unspecified) = 2

Next records.
Molecule | eIF4H FP inh | Rce1 inhib | PABP FP inh | UUG fidelity | MT1-MMP act inh | MT1-MMP act inh RFP | CSC inhib | Env fusion inh
N#CCC(=O)Nc1ccc(C(=O)OCC(=O)NCCCc2ccccc2)cc1 | -14 | i | 4 | -17 | -1 | 1 | -6 | -3
Cc1cccc(C)c1NC(=O)C(c1ccc([N+](=O)[O-])cc1)N1CCCCC1 (stereo unspecified) | -3 | i | 6 | -19 | 1 | 5 | -9 | -21
C#CCn1c(C)cc(C)c(S(=O)(=O)c2ccccc2)c1=O | 4 | i | -5 | x | 1 | 6 | 2 | -10
CS(=O)(=O)N1CCc2cc(C(=O)Nc3ccc(COCC(F)(F)F)cc3)ccc21 | 0 | i | -4 | 2 | 5 | -7 | 32 | -3
CCOC(=O)N1CCN(S(=O)(=O)N2CCCC(C(=O)NCCc3ccc(Cl)cc3)C2)CC1 (stereo unspecified) | 0 | i | 15 | -1 | 2 | -10 | -13 | 6
CC(=O)C(C)n1c(CN2CCN(C(=O)c3ccco3)CC2)nc2c1c(=O)n(C)c(=O)n2C (stereo unspecified) | -5 | i | -4 | -13 | 0 | 3 | -9 | -1
COc1ccc(-n2c(=O)[nH]c3c(C(N)=O)nc(C4CCCCC4)nc32)cc1 | -4 | i | 19 | x | 0 | 1 | -7 | -12
Cn1ncc2c(Nc3ccc(O)cc3)nc(Cl)nc21 | -4 | i | 6 | -9 | 4 | 0 | -5 | -14
O=C(COc1ccc(C(=S)N2CCCC2)cc1)Nc1ccccc1C(F)(F)F | -13 | i | -11 | -22 | 2 | 6 | -5 | 6
O=C(COC(=O)C1CC2C=CC1C2)Nc1cccc(S(=O)(=O)N2CCOCC2)c1 (stereo unspecified) | -8 | i | 11 | -6 | -6 | -1 | -11 | 4
O=[N+]([O-])c1cc([N+](=O)[O-])c(Oc2c(F)cc(F)cc2F)cc1NN1CCCCC1 | 3 | i | 4 | -10 | -2 | 3 | 3 | 14
CNC(=O)c1sccc1-n1cccc1 | 0 | i | 5 | -14 | -6 | 1 | -13 | 7

Profiles from above. Order of values: eIF4H FP inh	Rce1 inhib	PABP FP inh	UUG fidelity	MT1-MMP act inh	MT1-MMP act inh RFP	CSC inhib	Env fusion inh
CC(=O)C(C)n1c(CN2CCN(C(=O)c3ccco3)CC2)nc2c1c(=O)n(C)c(=O)n2C (stereo unspecified) in the list: -5	i	-4	-13	0	3	-9	-1
O=C(COc1ccc(C(=S)N2CCCC2)cc1)Nc1ccccc1C(F)(F)F in the list: -13	i	-11	-22	2	6	-5	6
COc1ccc(-n2c(=O)[nH]c3c(C(N)=O)nc(C4CCCCC4)nc32)cc1 in the list: -4	i	19	x	0	1	-7	-12
Cc1cccc(C)c1NC(=O)C(c1ccc([N+](=O)[O-])cc1)N1CCCCC1 (stereo unspecified) in the list: -3	i	6	-19	1	5	-9	-21
Cn1ncc2c(Nc3ccc(O)cc3)nc(Cl)nc21 in the list: -4	i	6	-9	4	0	-5	-14

(further entries)
SMILES | eIF4H FP inh | Rce1 inhib | PABP FP inh | UUG fidelity | MT1-MMP act inh | MT1-MMP act inh RFP | CSC inhib | Env fusion inh
O=C(Nc1ccc(F)cc1)N1CCCCCC1 | 5 | i | -6 | -3 | -2 | 4 | 6 | -8
Oc1c(N=NC(=S)Nc2ccccc2F)c2ccccc2n1Cc1ccccc1F | 7 | + | 8 | -18 | 8 | -4 | x | 23
O=C(CN(CCc1ccccc1)C(=O)CNS(=O)(=O)c1ccc(F)cc1)NCC1CCCO1 (stereo unspecified) | 5 | i | 6 | -3 | -5 | -4 | -13 | x
COc1cccc(-c2nn(C)c3sc(C(=O)NCc4ccc5c(c4)OCO5)cc23)c1 | -8 | i | 5 | -7 | -1 | -1 | 11 | 9
COc1cccc(/C=N/NC(=O)c2cnccn2)c1 | 1 | i | 3 | x | 1 | 5 | -38 | x
Cn1c(SCC(=O)NC2CCCCC2)nnc1-c1cc2cc(Cl)ccc2o1 | 5 | i | -7 | -2 | 5 | -9 | 3 | -18
CCCCN(CCCC)C(=O)/C=C/c1cccc([N+](=O)[O-])c1 | 2 | i | -10 | x | -2 | -4 | x | x
Nc1nnnn1CC(=O)N/N=C/c1cccs1 | -10 | i | 5 | -10 | 3 | 6 | -5 | 3
CN1CCN(/N=C/c2ccc(C#N)cc2)CC1 | 0 | i | -2 | x | 0 | 4 | 9 | -3
Oc1ccc(Cc2ccc(Cl)cc2)c(O)c1 | -9 | i | 0 | 5 | 6 | 1 | 24 | 2
CCc1cccc(C)c1NC(=O)Nc1ccc2c(c1)OCO2 | -5 | i | -6 | x | -2 | 4 | -1 | -7
Cc1ccc(C)c(NC(=O)CCC(=O)NN=C2CCCC2)c1 | 9 | i | -9 | 2 | -8 | -4 | 11 | x
Cc1ccc(S(=O)(=O)c2nc(S(C)(=O)=O)sc2NCC2CCCO2)cc1 (stereo unspecified) | -8 | i | 10 | x | 6 | 6 | -14 | x
